Screening data: PubChem BioAssay, National Center for Advancing Translational Sciences (NCATS)
Rango dissoc inh = inhibitors of RanGTP-induced Rango-importin beta complex dissociation; O95149+P62826; Biochemical FRET Rango-importin beta, RanGTP-induced dissociation; Potency, µM (highest dose often 46.1 µM), inactives show at the top dose activity change, negative = inhibition; 0.071% of 340,000 active; active means falling FRET ratio curve, often poorly fitted, with flat reads before Ran was added; inconclusive means other falling curves, or compound fluorescence or quenching; inactive means flat or rising ratio curve;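 further: potency means the concentration at half of the fitted maximal effect; % of control where 0% means no effect; nearly all actives have a fitted effect of over 45% in size; -100% = wells without RanGTP and RCC1; the record marks most hits as doubtful in a second field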
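Compounds preincubate 5 min with complex of recombinant Rango and importin beta in PBS with 1 mM DTT. Ran (0.6 uM) loaded with 2 mM GTP plus 0.2 uM RCC1 starts dissociation; FRET is recorded 45 min later.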
Rango-impB inh = Rango-importin beta binding inhibition; Q14974; Rango CFP/YFP FRET sensor + importin beta, 45 min; Potency, µM (highest dose often 92.2 µM), without a hit: top-dose inhibition of complex formation; 0.031% of 340,000 active; AID 540263; active = rising FRET ratio curve, often small or poorly fitted; inconclusive = mostly compound fluorescence or quenching in the first reads; inactive = flat curves in all reads;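 further: potency means the concentration at half of the fitted maximal effect; 0% = DMSO wells and 100% = buffer wells lacking importin beta; nearly all actives have a fitted effect of over 15% in size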
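FRET biosensor Rango (snurportin 1 IBB between N-terminal EYFP and C-terminal Cerulean), 50 nM in PBS/1 mM DTT/0.02% Tween-20/0.1% BSA, preincubated 5 min RT with compound; 0.125 microM importin beta added, 45 min RT, CFP/YFP FRET ratio read.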
GLA inh pH 4.5 = inhibitors of human alpha-galactosidase A at pH 4.5 | purified enzyme, 4-MU-alpha-Gal fluorescence, pH 4.5 | P06280 | 230,000 tested, under 10 active | activity change, negative = inhibition, % at 105 µM; inconclusive = small, poorly fitted or top-dose-only inhibition, or a rising curve; inactive = flat fitted curve, though single readings scatter; no compound was filed as active;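 further: 0% = full activity with enzyme and -100% = basal without enzyme; dose as in the result columns while the protocol names 77 µM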
Target sequence (P06280 whole entry, looked up): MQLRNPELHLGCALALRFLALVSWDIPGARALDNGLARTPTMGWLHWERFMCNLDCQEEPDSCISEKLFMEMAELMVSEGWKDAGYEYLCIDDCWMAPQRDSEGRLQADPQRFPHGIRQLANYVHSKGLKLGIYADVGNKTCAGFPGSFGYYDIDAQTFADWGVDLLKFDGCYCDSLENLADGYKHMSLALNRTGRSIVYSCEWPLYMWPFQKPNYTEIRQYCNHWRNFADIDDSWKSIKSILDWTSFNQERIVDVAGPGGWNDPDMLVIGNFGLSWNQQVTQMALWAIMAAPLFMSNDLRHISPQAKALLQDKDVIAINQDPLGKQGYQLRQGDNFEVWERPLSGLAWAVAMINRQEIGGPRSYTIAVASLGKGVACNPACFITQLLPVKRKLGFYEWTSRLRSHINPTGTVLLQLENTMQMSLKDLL
miR-21 reporter = miR-21 reporter, rising signal. HeLa miR-21 FLuc reporter, luciferase, 48 h. Potency, µM (series often up to 38.3 µM), without a hit: at the top dose reporter change, positive = more light. 340,000 tested, under 10 active. AID 2288; active = well fitted rising curve with a large enough effect; inconclusive = small, poorly fitted or top-dose-only effect; inactive = no such curve, though single readings can be large or run the other way;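 further: % of control where 0% means no effect; miR-21 action dims this reporter so a rising signal means less miR-21 action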
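Compounds were titrated across several concentrations (up to approximately 40 uM) and incubated 48 hours with HeLa miR-21-FLuc reporter cells (miR-21 target sequence downstream of FLuc, endogenous miR-21). Readout was firefly luciferase luminescence after lytic detection reagent.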
* hit, by the source's call; ? = inconclusive; · = not tested or not shown; & = joins results of further samples. Some of the compounds tested (hit frequency here may not be typical).

smiles | Rango dissoc inh | Rango-impB inh | GLA inh pH 4.5 | miR-21 reporter
O=C(c1ccc(Cl)cc1)C1CCCN(Cc2cccn2-c2cccnc2)C1 (stereo not given) | 5% | 4.1% | 7 | -8%
COc1cc(C(=O)Nc2ccc3c(c2)OCO3)c([N+](=O)[O-])cc1OC | 0% | 1.6% | · | 0%
CCOc1ccc(NC(=O)CNC(=O)c2cn(-c3ccccc3OC)c(=O)c3ccccc23)cc1 | 25% | 0.0% | -10 | 8%
CC1(C)CC(O)C(CCC(O)c2ccccc2)C(C)(C)N1 (stereo not given) | 2% | -5.7% | 2 | -4%
CC(C)[C@@H](N)C(=O)NC[C@H]1O[C@@H](n2cnc3c(N)ncnc32)[C@H](O)[C@@H]1O | -1% | 0.4% | · | ·
OCCCn1c(C2CCCN2c2nc(-c3ccc(Cl)cc3)cs2)nc2cc(Cl)c(N3CCCCC3)cc21 (stereo not given) | -18% | ? | · | ·
Cc1nn(C)c(C)c1N1C(=O)c2cccc3c(Br)ccc(c23)C1=O | -21% | -1.5% | 6 | 19%
COc1ccc(/C=C/C(=O)c2ccc(Cl)s2)cc1O | 1% | ? | -7 | -27%
CC1CCN(C(=O)c2cccc(S(=O)(=O)N3CCCCC3)c2)CC1 | 0% | -2.5% | 10 | -11%
CCCCc1ccc(NC(=O)c2ccc(NS(C)(=O)=O)cc2)cc1 | -1% | 1.4% | 0 | -5%
Clc1ccc(-c2ccnc(-n3cccc3)n2)s1 | -2% | -0.7% | 5 | -6%
CCCCN(C(=O)COC(=O)c1ccc(C)s1)c1c(N)n(CCC)c(=O)[nH]c1=O | ? | 0.5% | · | ·
COc1ccccc1NC(=O)NNC(=O)c1ccc2ccccc2c1 | 9% | -2.2% | · | -15%
CCOc1ccccc1NC(=O)CCS(=O)(=O)c1ccc2c(c1)CCN2C(C)=O | 12% | -0.7% | · | -1%
Clc1ccc(-c2nc(C3CCCCC3)no2)cc1 | -10% | 0.0% | 0 | -24%
CC(=O)/C=C1/SC(CC(=O)O)C(=O)N1c1ccccc1 (stereo not given) | 14% | -2.3% | -5 | -1%
O=C(Nc1ccc(NC(=O)C2CC2)cc1)c1ccco1 | 15% | -2.7% | · | -47%
CN(C)S(=O)(=O)c1cccc(NC(=O)COC(=O)CCOc2ccccc2)c1 | -4% | 0.7% | 0 | -1%
O=C(C1CC1)N1CCc2cc(Br)cc(S(=O)(=O)NCCN3CCOCC3)c21 | 0% | -0.8% | 10 | -1%
CCCNC(=O)CSc1nc2ccccc2c(=O)n1CCC | 1% | 1.6% | 4 | 0%
O=C(COC(=O)Cc1ccsc1)Nc1ccc(Br)cc1F | -21% | 3.0% | · | ·
Cc1ccc(-c2csc(N=C(N)N)n2)c(C)c1 | -9% | 3.4% | -3 | -25%
Cc1ccc(SC(C)C(=O)NC2CC2)cc1 (stereo not given) | 12% | 6.9% | · | -4%
CCCSC1=C(C#N)C(c2cccs2)CC(=O)N1 (stereo not given) | 7% | 4.6% | 1 | -2%
CCCOc1ccc(C(NC(=O)CC(C)C)NC(=O)CC(C)C)cc1OC | 18% | -5.0% | -2 | 0%
CC(C)C(c1nnnn1CCc1ccccc1)N1CCN(C(=O)c2ccco2)CC1 (stereo not given) | -14% | -5.2% | -6 | -1%
CN(Cc1ccccc1)C(=O)c1[nH]cnc1C(=O)N[C@@H](Cc1ccccc1)C(=O)OC(C)(C)C | -4% | -0.9% | · | 4%
CSCC[C@H](NC(=O)c1ccc(OCC2CCCO2)cc1)c1nc2ccccc2[nH]1 (stereo not given in full) | 0% | 4.3% | · | ·
O=C(CN1CC[n+]2c(-c3ccccc3)csc21)c1ccc(Br)cc1 | -5% | 4.0% | -1 | 15%
CN1CCN(C(=O)c2ccc3c(=O)n(-c4ccc(F)cc4)c(=S)[nH]c3c2)CC1 | -25% | -0.2% | -19 | -12%
COc1ccc(/C=C(/C(=O)Nc2ccccc2C(=O)N2CCCC2)c2ccccc2)cc1 | -14% | -2.1% | -19 | 9%
CCCN(CCC)CCNc1c(NC2CCN(C(=O)OCC)CC2)c(=O)c1=O | -7% | 1.2% | -4 | 0%
CC[C@@H]1CCCCc2ccccc2[C@H](C(=O)C[C@H](O)CC(C)=O)OC1=O | 4% | 3.1% | · | ·
Cc1nnsc1C(=O)NC(C)C12CC3CC(CC(C3)C1)C2 (stereo not given) | 2% | -11% | -12 | -9%
O=C1C2C(C(=O)N1c1nccs1)C1C=CC2C12CC2 (stereo not given) | -1% | 0.7% | 1 | 1%
CC1C=CCC2C(=O)N(c3ccccc3OC(=O)c3cccs3)C(=O)C12 (stereo not given) | 15% | -0.4% | -7 | 2%
Cc1ccc(CNC(=O)C(=O)c2cn(CC(=O)N3CCCC3)c3ccccc23)cc1 | -14% | 0.5% | · | -33%
O=C(N/N=C/C=C/c1ccccc1[N+](=O)[O-])c1cccs1 | 11% | -5.0% | -6 | -37%
CCN(CC)CC#CCC(O)(c1ccccc1)c1ccc(Br)cc1 (stereo not given) | -17% | -0.3% | -13 | -5%
CCC(C)N1CCN(C(=O)c2cccs2)CC1 (stereo not given) | ? | -2.6% | · | ·
CCCCN(C(=O)Cc1cccc(F)c1)c1c(N)n(CCC)c(=O)[nH]c1=O | 7% | 2.8% | 2 | 6%
Cc1nnc(N/N=C/c2ccccc2F)n1N | -5% | -0.7% | · | -6%
Cc1ccc(NC(=O)c2ccncc2)cc1[N+](=O)[O-] | -12% | -1.9% | 9 | -15%
O=C1C(=Cc2cccs2)C(=O)c2ccccc21 | 3% | 4.6% | -1 | -14%
c1cncc(-c2nnc3n2CCC3)c1 | 7% | -2.1% | -3 | 0%
Cc1[nH]c2ccccc2c1C(O)CN1CCC2(CC1)OCCO2 (stereo not given) | -11% | -6.0% | -6 | 5%
O=C(Nc1ccccc1)c1ccccc1NC(=O)C1CCCCC1 | 4% | -1.4% | -8 | -2%
CCOc1ccc(C(C)NC(=S)NCc2ccc(F)cc2)cc1 (stereo not given) | 6% | -0.9% | · | 4%
CCOC(=O)N1CCN(C(=O)/C(=C/c2cccc3ccccc23)NC(=O)c2ccc(OC)c(OC)c2)CC1 | 11% | ? | -6 | -2%
Cc1cccc(C(=O)N(Cc2cccs2)C2CCS(=O)(=O)C2)c1 (stereo not given) | 24% | -1.9% | · | -1%
CCOc1ccc(N=C2NC(=O)C(CC(=O)Nc3ccccc3)S2)cc1 (stereo not given) | 1% | 0.3% | -5 | -1%
O=c1oc(Nc2cccc(Cl)c2)nc2ccccc12 | 6% | -2.3% | -16 | -10%
COc1ccc(-n2cc(CN(C)C(C)c3ccncn3)c(-c3cccc(F)c3)n2)cc1 (stereo not given) | 5% | -4.1% | -12 | 4%
CCCc1c(C)nc(N2CCN(c3ccccc3F)CC2)[nH]c1=O | 0% | 0.4% | · | -3%
COC(=O)CN1C(=O)C2(C(C#N)=C(N)Oc3ccccc32)C2=C1CC(C)(C)CC2=O (stereo not given) | 2% | -1.4% | 7 | -2%
O=C(NCC(=O)N1CCN(S(=O)(=O)c2ccccc2F)CC1)c1ccc(Br)o1 | 33% | -0.1% | · | 0%
CC1CCN(C(=O)CSc2nnc(Cc3cccn3C)n2-c2ccc(F)cc2)CC1 | -3% | -1.2% | -4 | -4%
Cc1nnc(SCC(=O)NC2CCC(C)CC2)s1 (stereo not given) | 1% | 0.8% | · | ·
Clc1ccc(-c2nc(NCCN3CCOCC3)c3ccccc3n2)cc1 | 11% | 5.8% | 0 | -26%
Cc1cc(C(=O)Nc2ccc(Nc3ccccc3)cc2)ccc1[N+](=O)[O-] | 22% | -6.3% | · | 6%

(listing goes on)
smiles | Rango dissoc inh | Rango-impB inh | GLA inh pH 4.5 | miR-21 reporter
CCOC(=O)c1sc(=S)n(-c2ccc(OC)cc2)c1N | -1% | -1.3% | -11 | -10%
Cc1ccc(NC(=O)CN2C(=O)CCSc3ccc(S(=O)(=O)N4CCCC4)cc32)cc1 | -5% | 0.1% | · | 0%&-1%
CCC(=O)c1ccc(OCC(=O)OCC(=O)Nc2c(C)n(C)n(-c3ccccc3)c2=O)cc1 | -14% | 2.1% | · | ·
CC(=O)c1cccc(NC(=O)CCN2C(=O)C3CC=CCC3C2=O)c1 (stereo not given) | 3% | 0.7% | · | ·
COCCN1C(=O)c2oc3c(C)cc(C)cc3c(=O)c2C1c1cccc(O)c1 (stereo not given) | 3% | 1.6% | 2 | -16%
CCOc1cc(/C=C2/N=C(C)C(C(=O)OC)=C2O)ccc1O | ? | ? | -16 | 0%
O=C(Cn1c(=S)[nH]c2ccccc2c1=O)N1CCN(c2ccc(F)cc2)CC1 | 0% | -4.6% | 7 | 6%
CC(C)C(=O)Nc1ccc(Sc2ccc(F)cc2)cc1 | 1% | 4.9% | -22 | -4%
Cn1c(=O)c2c(SCC(=O)N3CCOCC3)nc(-c3ccccc3Cl)nc2n(C)c1=O | -12% | 0.1% | · | 1%
COC(=O)c1ccc(N(C(=O)CNC(=O)c2ccco2)C(C(=O)NC2CCCC2)c2ccco2)cc1 (stereo not given) | -14% | 3.3% | 3 | -3%
COc1ccccc1-n1nnnc1SCC(=O)NC1CC1 | -4% | -1.3% | · | ·
COc1ccc(-c2csc3ncnc(N4CCN(c5ccccc5)CC4)c23)cc1 | -5% | ? | · | -6%
COc1ccc(-c2noc(-c3ccccc3C(=O)NCc3ccco3)n2)cc1OC | 14% | -2.7% | -2 | -3%
COc1ccc(/C=C2\SC(=O)N(CC(=O)Nc3cccc(C)c3)C2=O)cc1O | 5% | 3.5% | · | 8%
COc1ccc(C(CC(=O)O)NC(=O)c2sc3ccccc3c2Cl)cc1 (stereo not given) | 1% | -0.9% | 4 | -5%
CCC(Oc1ccccc1C)C(=O)Nc1ccc(S(=O)(=O)Nc2cc(C)on2)cc1 (stereo not given) | 13% | -2.8% | · | -6%
CCOc1ccc(-n2c(O)c(/C=N/c3ccnn3Cc3ccncc3)c3ccccc3c2=O)cc1 | -26% | ? | 6 | 2%
CCN(CCNC(=O)C1CCN(Cc2nc(-c3cccc(Cl)c3)oc2C)CC1)c1ccccc1 | 6% | -3.4% | -25 | 26%
CC(C)[C@H](NC(=O)c1ccccc1)C(=O)Nc1ccc2c(c1)OCO2 | 0% | -2.2% | · | ·
O=C(C1CCC1)N1CCN(c2ccccc2)CC1 | -20% | 0.1% | · | -6%
Cn1c(=O)c2c(nc(N3CCN(Cc4ccccc4)CC3)n2CC(=O)c2ccccc2)n(C)c1=O | 2% | -11% | · | ·
S=c1[nH]nc(-c2ccco2)n1/N=C/c1c(Cl)cccc1Cl | -9% | 0.7% | 3 | 3%
COc1ccc(S(=O)(=O)N2CCC(C(=O)N(CC(C)C)C3CCS(=O)(=O)C3)CC2)cc1OC (stereo not given) | 8% | 1.3% | · | ·
Cc1cc(Cl)ccc1NNC(N)=S | 5% | 0.6% | 1 | 8%
C=CCNC(=O)Nc1cc(Cl)ccc1OC | -1% | ? | -9 | -1%
COc1ccc(/C=C/C(=O)Nc2ccc(-n3nncc3-c3ccc(OC)c(OC)c3)cc2)cc1OC | -13% | 1.4% | -7 | -18%
CN1CCc2ccccc2Cc2[nH]c3ccccc3c2CC1 | -6% | ? | -10&-7 | ·
O=C(NCc1cccc(C(F)(F)F)c1)c1ccc[nH]1 | -2% | -0.8% | · | -11%
COc1cccc(C(=O)Oc2ccc3c(C)cc(=O)oc3c2C(C)=O)c1 | -16% | -4.0% | 15 | 0%
CCOc1ccc(NC(=O)CCc2ccc(C)o2)cc1 | 6% | 1.1% | · | -21%
